Compound activity: PubChem, National Center for Advancing Translational Sciences (NCATS)
D2 ag: activates the human D2 dopamine receptor; P14416; DiscoveRx PathHunter D2 beta-arrestin, luminescence, 90 min; 100% = 57 uM dopamine signal; activation, % (test concentration not listed); 360,000 tested, 0.084% active; AID 624465; in the data active = activation above about 40%; inconclusive = about 15% to 40%; inactive = below about 15%; note: compound concentration not given in the record; the text of the record calls up to 30% inactive
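DiscoveRx PathHunter D2 beta-arrestin cells (2,100/well) attached overnight, then compound-stimulated 90 min at 37 C in HBSS/10 mM HEPES/0.1% Tween-20 buffer; beta-galactosidase complementation read by luminescence after 1 h at ambient temperature. Dopamine 57 uM final (EC100) as control.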
D2 potentiator: human D2 receptor positive allosteric modulation; potentiation, % (no concentration beside the values); P14416; 360,000 tested, 0.23% active; AID 624464; DiscoveRx D2 beta-arrestin cells, luminescence, 90 min; 100% = 57 uM dopamine signal; active = potentiation of 50% or more; inconclusive = 30% to 50%; inactive = 30% or less;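 note: compound concentration not given in the record; tested on top of an EC20 dose of dopamine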
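PathHunter beta-arrestin assay in DiscoveRx D2 cells. Compounds were added with an EC20 of dopamine (50 nM final) for 90 min at 37 deg C. Luminescence was read 1 h after detection reagent, with 57 uM dopamine as the EC100 control.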
CtBP-E1A inh: inhibitors of CtBP/E1A interaction; AlphaScreen GST-E1A/His-CtBP binding, 1536-well; stronger effect = lower value; control for the full effect not named in the record; 340,000 tested, 0.49% active; activity change, % (test concentration not listed); in the data active means activity change below about -65%; inconclusive means about -30% to -65%; inactive means above about -30%; note: % is set by controls: 0 for no effect and ±100 for the full control effect; compound concentration not given in the record
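Steps: dispense buffer (Tris pH 8.0, NaCl 300 mM, TCEP 1 mM, BSA, Tween 20); add 5X protein mix (GST-E1A, His-CtBP, 125 nM each); pin 23 nL compound; 2 h at 37 °C, dark; add 5X beads (50 ug/mL); 1 h; read.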
PINK1 expr mod: PINK1 expression modulation. PINK1 immunofluorescence, high-content cytometry, 24 h. Potency, µM (titrated, usually from 76.6 µM), inactives show at the highest dose activation (PINK1 increase), usual class: activators. 410,000 tested, 0.2% active. AID 624263; active = well fitted activation curve with a large enough effect; inconclusive = small, poorly fitted or top-dose-only effect; inactive = flat fitted curve, though single readings scatter; cell line not stated here;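 note: potency is the fitted concentration of half-maximal effect; % of control where 0% means no effect; nearly all actives have a fitted effect of over 65% in size; a mitochondrial uncoupler was the plate control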
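Stable cell line treated 24 h with compounds at 5 concentrations (CCCP controls), then fixed and immunostained for PINK1 plus nuclear and cell stains; PINK1 immunofluorescence quantified by laser-scanning microplate cytometry.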
Six1-Eya2 inh: blocks human Six1 binding to Eya2 | 360,000 tested, 0.56% active | activity change, % (concentration not given with the values) | Q15475+O00167 | AlphaScreen GST-Six1/His-Eya2 binding, biochemical; stronger effect = lower value; control for the full effect not named in the record; in the data active = activity change below about -65%; inconclusive = about -30% to -65%; inactive = above about -30%; note: % is set by controls: 0 for no effect and ±100 for the full control effect
Target sequence (O00167 whole entry, looked up): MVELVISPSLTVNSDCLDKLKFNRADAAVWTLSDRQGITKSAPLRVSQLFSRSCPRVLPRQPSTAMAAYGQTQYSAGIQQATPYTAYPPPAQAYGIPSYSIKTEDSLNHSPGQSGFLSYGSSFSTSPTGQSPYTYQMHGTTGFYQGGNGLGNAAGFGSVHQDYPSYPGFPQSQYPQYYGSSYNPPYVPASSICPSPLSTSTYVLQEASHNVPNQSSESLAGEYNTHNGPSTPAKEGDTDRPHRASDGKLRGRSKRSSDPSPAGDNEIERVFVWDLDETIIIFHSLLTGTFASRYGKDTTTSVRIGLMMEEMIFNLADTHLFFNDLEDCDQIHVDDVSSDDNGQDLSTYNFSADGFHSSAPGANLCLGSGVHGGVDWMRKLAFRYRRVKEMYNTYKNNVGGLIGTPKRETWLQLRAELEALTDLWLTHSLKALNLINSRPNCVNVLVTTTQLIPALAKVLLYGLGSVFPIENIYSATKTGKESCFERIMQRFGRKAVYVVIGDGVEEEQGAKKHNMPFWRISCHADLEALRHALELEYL
Target sequence (Q15475 whole entry, looked up): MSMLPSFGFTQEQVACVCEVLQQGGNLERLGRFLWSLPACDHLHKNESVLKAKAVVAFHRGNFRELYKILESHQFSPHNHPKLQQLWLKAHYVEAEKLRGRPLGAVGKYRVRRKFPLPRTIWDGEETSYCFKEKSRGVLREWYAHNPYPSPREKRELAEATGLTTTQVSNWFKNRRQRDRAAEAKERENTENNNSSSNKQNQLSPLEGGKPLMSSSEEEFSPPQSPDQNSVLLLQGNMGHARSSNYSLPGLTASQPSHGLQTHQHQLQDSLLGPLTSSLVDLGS
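AlphaScreen with GST-Six1 and His-Eya2 (5X mix: 250 nM and 500 nM), glutathione donor and nickel acceptor beads; buffer 50 mM Tris pH 8.0, 300 mM NaCl, 1 mM TCEP; 1 h at 37 C in the dark.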
TRPML1 ag: human mucolipin-1 channel agonism | Q9GZU1 | TRPML1-expressing cells, Ca2+ dye fluorescence, FDSS; host cell line not named in the record; reference of the full effect not given here | activation, % (no concentration beside the values) | 410,000 tested, 0.12% active | AID 624414; in the data active = activation above about 50%; inconclusive = about 30% to 50%; inactive = below about 30%; note: 0% is about no effect; the text of the record puts the active cut at 80%
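In this qHTS format, compounds were pin-transferred onto Ca8-dye-loaded TRPML1-DL cells induced with Tet overnight, and intracellular Ca2+ fluorescence was recorded kinetically for 110 s after a 10 s baseline. A subsequent 4uM final 54-4 (EC80) addition followed by a second 110 s read served as the antagonist phase.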
The depositor's hits bear a star; ? = inconclusive; . = no result given; & = joins results of further samples; [ ] = another dose, or the depositor's remark.

SMILES	D2 ag	D2 potentiator	CtBP-E1A inh	PINK1 expr mod	Six1-Eya2 inh	TRPML1 ag
C=CCn1c(N)c(C(=O)NCC2CCCO2)sc1=S (stereo not drawn)	-4.5	-6	3	-0.6%	-4	-1.0
COC(=O)CNC(=S)NC(=O)c1ccc(C(C)(C)C)cc1	-2.9	-16	.	4.4%	-15	1.1
CCN1CCN(c2nc3c(C)cccn3c(=O)c2/C=C(\C#N)S(=O)(=O)c2ccccc2)CC1	-0.1	-7	0	6.4%	-4	2.5
O=C1CC(N2CCN(Cc3ccccc3)CC2)C(=O)N1c1ccc2c(c1)OCCO2 (stereo not drawn)	-2.7	-10	0	0.1%	3	-0.6
CC(C)(O)c1cc2ccccc2c(=O)o1	6.0	-3	-20	-0.5%	15	0.3
CC(=O)N1CCCc2cc(S(=O)(=O)N3CCCC(C(=O)NCc4ccc(Cl)cc4)C3)ccc21 (stereo not drawn)	2.8	-11	7	-0.6%&-1.0%	1	-0.1&1.1
CC(C)(C)NC(=O)CSc1nc2ccc(NC(=O)CSc3nnnn3Cc3ccccc3)cc2s1	1.7	0	-3	-0.4%	-1	0.0
CC(C)COC(=O)N1CCCCC1c1cc(C(=O)Nc2ccc3c(c2)OCO3)no1 (stereo not drawn)	-1.4	-7	-6	0.1%	2	0.1
CC(=O)c1c(NC(=O)C(C)C)nc(C)nc1-c1ccccc1	-1.7	-10	-2	0.6%	-1	-0.5
CC1(C)Cc2ccccc2-c2nnc(SCC(=O)N3CCN(c4ccccc4)CC3)n21	-3.0	-16	-13	-0.2%[38.3 µM]	-10	2.4
CCOc1cc(C)c(C(C)C)cc1S(=O)(=O)N1CCN(C)CC1	0.9	-24	-5	-0.2%	3	0.8
N#Cc1ccc(OCc2nnc(SCC(=O)N3CCCc4ccccc43)n2-c2ccccc2)cc1	0.8	-13	-5	-0.1%	-4	3.9
O=C(NCC(c1ccco1)N1CCN(c2ccccc2)CC1)C1CCCCC1 (stereo not drawn)	2.3	-5	0	-0.7%	1	0.3
CC(=O)c1sc(Nc2nc3ccc(F)cc3s2)nc1C	3.6	7	7	?	4	1.1
O=C(CSc1nc2ccccc2c(=O)[nH]1)Nc1ccc(Br)cc1	-5.0	-6	2	0.9%	6	-0.7
N#Cc1ccc(-c2cn(-c3ccccc3)c3[n+]2CCCS3)cc1	-7.7	-4	3	1.4%	-2	2.8
CC1CCCN(CCCN2C(=O)C3C(C(=O)Nc4cccc(Cl)c4)C4C=CC3(O4)C2C(=O)NC2CCCCC2)C1 (stereo not drawn)	-4.7	-8	-5	4.4%	2	1.0
COc1ccc(CNC(=O)[C@H](C)NC(=O)[C@@H]2Cc3ccccc3CN2)cc1	0.7	-7	5	-0.6%	7	0.0
COc1ccc(N2CCN(c3ncnc4nc[nH]c34)CC2)cc1	-6.1	-9	1	2.7%	-9	-0.7
CNc1cc(=O)n(C)c(=O)n1-c1ccccc1	-4.6	-21	.	1.9%	2	0.0

Reprinted from the part before: 5 entries, then new ones.
SMILES	D2 ag	D2 potentiator	CtBP-E1A inh	PINK1 expr mod	Six1-Eya2 inh	TRPML1 ag
N#Cc1ccc(-c2cn(-c3ccccc3)c3[n+]2CCCS3)cc1	-7.7	-4	3	1.4%	-2	2.8
CC1CCCN(CCCN2C(=O)C3C(C(=O)Nc4cccc(Cl)c4)C4C=CC3(O4)C2C(=O)NC2CCCCC2)C1 (stereo not drawn)	-4.7	-8	-5	4.4%	2	1.0
COc1ccc(CNC(=O)[C@H](C)NC(=O)[C@@H]2Cc3ccccc3CN2)cc1	0.7	-7	5	-0.6%	7	0.0
COc1ccc(N2CCN(c3ncnc4nc[nH]c34)CC2)cc1	-6.1	-9	1	2.7%	-9	-0.7
CNc1cc(=O)n(C)c(=O)n1-c1ccccc1	-4.6	-21	.	1.9%	2	0.0
OCCN1CCN(C(=S)Nc2ccccc2)CC1	1.3	-5	0	1.1%	-2	0.1
COc1ccc(-c2c3c(=O)n(C)c(=O)n(C)c3cn2NC(C)=O)cc1	-0.7	-4	-23	2.9%[38.3 µM]	-5	0.6
O=[N+]([O-])c1ccc(S(=O)(=O)NCC(c2cccnc2)N2CCc3ccccc32)cc1 (stereo not drawn)	8.7	-1	-16	1.7%	-25	0.6
O=C(CN(Cc1ccco1)C(=O)CNS(=O)(=O)c1ccccc1)NC1CCCCC1	-3.2	-10	3	-1.4%	-1	-0.5
Cn1c(=O)[nH]c(=O)c2c1nc(N1CCCCC1)n2CCSc1ncccn1	-3.0	-3	-5	-0.2%	3	0.5
O=C(Cn1cc2c(n1)CCCCC2)NC1CCCCCC1	-1.3	-4	0	0.1%	3	0.3
CN(C(=O)COC(=O)c1ccccc1SCC(=O)NC1CCCCCCC1)C1CCS(=O)(=O)C1 (stereo not drawn)	-2.6	-19	-12	-3.0%	-5	1.3
O=C1C=CN(C(=O)Oc2ccccc2)CC1	-1.2	0	-7	0.4%	4	1.1
O=C(O)Cn1c(SC2CCCCC2)nc2ccccc21	-4.6	-18	15	0.8%	-1	-0.4
Cc1ccc(NC(=O)COC(=O)Cn2ccc(=O)[nH]c2=O)cc1C	-4.5	0	0	0.7%	4	1.0
CN(C)c1c(N)[nH]c2c(c1=O)c(=O)n(C)c(=O)n2C	1.0	-9	4	-1.4%	2	1.1
COc1ccc(C(=O)NC(CC(=O)O)c2cc([N+](=O)[O-])ccc2Cl)c(SC)c1 (stereo not drawn)	-5.4	-7	0	3.0%	1	0.3
Cn1c(SCC(=O)NCc2ccc3c(c2)OCO3)nnc1C1COc2ccccc2O1 (stereo not drawn)	0.5	0	-1	-0.7%	3	-1.2
C[C@@H]1CN([C@H](C)CO)C(=O)c2cc(Br)cnc2O[C@@H]1CN(C)C(=O)Nc1ccccc1	-13	0	3	2.1%	4	0.6
CCCCNc1c(-c2ccc(SC3CCCCC3)c(OC)c2)nc2ccc(Cl)cn12	-2.4	-9	16	9.4%	4	-0.5
CCn1c(COc2cccc3cccnc23)nnc1SC(F)F	1.0	-3	-20	-1.1%	11	-0.1
COc1ccc(S(=O)(=O)N2c3ccccc3OCC2C)cc1 (stereo not drawn)	-2.5	-10	13	0.8%	3	0.5
CSc1nc(SCc2ccccc2)[nH]c(=O)n1	1.2	-8	0	-1.4%	17	2.1
CCOC(=O)C1(C)NC(c2ccc(N(C)C)cc2)C2C(=O)N(CC)C(=O)C21 (stereo not drawn)	-2.9	0	0	-1.6%	1	-0.5
Cc1csc(SCCn2c(N3CCN(c4ccccc4)CC3)nc3c2c(=O)[nH]c(=O)n3C)n1	-4.0	4	0	-0.9%	0	0.4
COc1ccc(CNC(=O)c2ccc(CNc3c(NC4CCCCC4)c(=O)c3=O)cc2)cc1	-3.2	-9	3	1.9%	7	0.2
COc1cc2c(cc1OC)CN(C(=O)C1CCCN(C(=O)c3ccc(Cl)cc3)C1)CC2 (stereo not drawn)	0.3	0	.	0.9%	5	0.5
Cc1nc2ccc(S(=O)(=O)Nc3cccc(-c4nc5cccnc5s4)c3C)cc2s1	0.4	-7	-5	0.6%	-3	0.8
CC(C)C[C@H]1CN(CCCC[C@@H]2CNC(=O)C(=O)N2CCc2ccccc2)C(=O)C(=O)N1CCc1ccc(O)cc1	.	.	-29	-0.3%	?	-0.3
Nc1cccnc1S(=O)(=O)c1cccc(C(F)(F)F)c1	-23	1	5	-0.1%	1	0.4
O=C(Cc1ccc(F)cc1)N[C@@H]1c2ccccc2CC[C@@H]1O	1.5	.	5	0.5%	8	-0.7
CS(=O)(=O)N(CC(=O)NC1CC2CCC1C2)c1cccc(C(F)(F)F)c1 (stereo not drawn)	-1.4	-1	3	-0.6%	6	-0.2
O=C(Nc1cccc(S(=O)(=O)N2CCOCC2)c1)c1cnn2c(C(F)F)cc(-c3ccccc3)nc12	-4.8	-9	-15	2.7%	6	0.3
CCOC(=O)c1c(NC(=O)CN2CCN(c3ccc(Cl)cc3)CC2)sc(C)c1C	1.3	-6	6	.	-1	-0.4
COc1ccc(OC)c(C(=O)COC(=O)COc2ccccc2F)c1	-2.8	-2	10	2.6%	5	2.5
Cc1cccc(NC(=O)CSCC(=O)Nc2cc(Cl)ccc2N2CCOCC2)c1	-5.5	-12	-3	1.5%	6	0.0
CSc1nc(N)c2cn[nH]c2n1	-0.7	-9	-2	0.2%	-4	0.7
CCOC1=C/C(=C/c2c(N)n3nc(CC(=O)N4CCCC4)sc3nc2=O)C=CC1=O	-7.4	-8	-20	1.1%	-7	7.8
O=C(C1CCC(Cn2c(=S)[nH]c3ccccc3c2=O)CC1)N1CCN(c2ccccc2)CC1 (stereo not drawn)	2.0	-6	-15	0.9%	-14	1.2
COc1c(C)cc(C(=O)C2CCCN(C(=O)c3snnc3C)C2)cc1C (stereo not drawn)	-3.2	-3	-1	1.2%	4	-0.7
CC1=C(C(=O)N(C)C)CC(CC(=O)NC(c2ccccc2)c2ccccc2)C(=O)N1Cc1ccc(C(C)(C)C)cc1 (stereo not drawn)	-4.9	6	-3	22%	-6	-0.3
COC(=O)c1ccc(CSCc2ccc(C(=O)OC)o2)o1	-3.6	2	-7	-0.4%	0	-0.2
COc1ccc(CC(=O)NNc2ncnc3c2cnn3-c2ccc(C)cc2)cc1OC	-0.8	8	-2	0.3%	0	-0.7
CCOc1cc(OCC)cc(C(=O)N2CCC[C@H]2C(=O)N2CCC[C@H]2C(=O)NCc2cccc(OC)c2)c1	.	.	9	2.4%	2	-0.5
Cc1ccc(N2CCN(S(=O)(=O)c3cccs3)CC2C)cc1 (stereo not drawn)	2.5	-9	-17	0.2%	-13	2.8
Cc1ccc(N=Nc2c(N)nn3c(N)c(C#N)c(C)nc23)cc1	-6.6	-5	.	5.4%	?	1.4
Clc1ccc(-c2nc3ncccn3c2Nc2ccc3c(c2)OCO3)cc1	-0.7	5	1	18%	2	-0.2
CCN(CC)C(=O)CC(c1ccc(N(C)C)cc1)c1c(OC)cc(OC)c2ccc(=O)oc12 (stereo not drawn)	2.7	-4	-17	-0.8%	-15	1.4&-0.2
CN(C)S(=O)(=O)c1ccc(/C(O)=C2/C(=O)C(=O)N(Cc3cccnc3)C2c2ccco2)cc1 (stereo not drawn)	2.5	2	4	2.5%	8	-0.4
Cc1ccc(S(=O)(=O)Nc2cccnc2)cc1C	3.4	11	8	-1.1%	3	-1.4
CC1=C(OC(=O)c2ccc(Br)cc2)C(C)(C)C(c2ccccc2)OC1=O (stereo not drawn)	-1.8	2	-4	1.1%	-8	-0.1
CN(C(=O)c1ccc(NC(=O)Cc2ccc(NC(=O)C3CCN(C(=O)c4ccccc4)CC3)cc2)cc1)C1CCCC1	-0.7	0	3	4.9%	10	2.8
CSc1ccccc1NC(=O)COC(=O)Cc1cccs1	1.4	-1	0	-0.7%	4	1.3
